YopH PTP inh: YopH (Yersinia) phosphatase inhibition | inhibition, %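 (about 10 µM by stock and volumes)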 | fluorescence Ex485/Em525 | 140,000 tested, 0.16% active;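 active = inhibition of 50% or more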;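 also: controls were vehicle for no effect and minimum signal wells for full effect; inactives centre near -20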
Mtb growth: M. tuberculosis H37Rv growth inhibitors, H37Rv strain (AID 1626). inhibition, % at 10 µM; hits with a dose series show IC50 in µM. M. tuberculosis H37Rv growth inhibition; higher % means a stronger effect. 220,000 tested, 0.95% active;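 active = confirmed in a dose series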;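 also: bacteria incubated seven days before Alamar blue readout; 0% = bacteria only wells and 100% = bacteria with antibiotic wells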
RecA splice inh: Mtb RecA intein splicing inhibition; 290,000 tested, 0.75% active; AID 2221; P9WHJ3; inhibition, %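 (about 9 µM by stock and volumes)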; cell-free RecA intein splicing, fluorescence; in the data active = inhibition above about 30%;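 also: 0% = vehicle wells and 100% = reference inhibitor control wells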
Target sequence (P9WHJ3 whole entry, looked up, canonical isoform): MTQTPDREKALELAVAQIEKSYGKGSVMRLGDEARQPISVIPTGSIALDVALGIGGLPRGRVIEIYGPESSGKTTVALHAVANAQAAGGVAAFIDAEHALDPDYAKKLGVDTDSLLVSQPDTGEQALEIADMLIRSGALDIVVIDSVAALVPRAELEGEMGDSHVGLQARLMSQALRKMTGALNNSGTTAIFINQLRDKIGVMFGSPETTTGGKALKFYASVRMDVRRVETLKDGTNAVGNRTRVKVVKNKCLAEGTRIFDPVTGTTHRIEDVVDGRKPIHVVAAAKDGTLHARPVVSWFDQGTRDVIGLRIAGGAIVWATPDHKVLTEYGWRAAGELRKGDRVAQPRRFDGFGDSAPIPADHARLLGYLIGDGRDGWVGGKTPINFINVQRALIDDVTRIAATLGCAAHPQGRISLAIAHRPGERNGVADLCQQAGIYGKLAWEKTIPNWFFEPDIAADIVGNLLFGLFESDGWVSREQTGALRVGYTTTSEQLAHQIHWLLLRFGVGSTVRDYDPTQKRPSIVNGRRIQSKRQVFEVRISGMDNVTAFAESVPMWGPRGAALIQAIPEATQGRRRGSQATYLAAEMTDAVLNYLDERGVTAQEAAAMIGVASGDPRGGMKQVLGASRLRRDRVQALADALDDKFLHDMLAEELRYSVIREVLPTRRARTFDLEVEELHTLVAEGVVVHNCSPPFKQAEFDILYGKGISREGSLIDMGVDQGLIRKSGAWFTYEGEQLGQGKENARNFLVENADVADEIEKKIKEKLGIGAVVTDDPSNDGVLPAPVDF
Arbovirus anti: arbovirus infection inhibition | arbovirus infection cell-based antiviral screen | inhibition, % at 10 µM | 200,000 tested, 0.37% active;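 active = inhibition from about 30%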;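 also: bluetongue infection of BSR cells; cell survival read as ATP light after 72 h; 0% = infected wells without compound and 100% = uninfected wells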
Mtb betalactam: beta-lactam sensitization of Mtb H37Rv | M. tuberculosis H37Rv growth with meropenem, percent inhibition; hits of this screen are not shown here | 330,000 tested, 0.27% active | inhibition, % at 25 µM | AID 434955;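 active = about 74% or more and at least 40 points above the plate without the antibiotic, then above 30% in a dose series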;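 also: growth measured after seven days incubation then overnight dye step; 0% = bacteria only wells and 100% = bacteria with antibiotic; twin plates without the antibiotic show which effects depend on it; some results filed as inactive read as strong as hits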
Arbovirus anti repeat: recorded beside Arbovirus anti, whose call it bears; inhibition, %; measured here: 10K subset replicate screen; many hits read low in the repeat;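 first of two repeat runs on a subset; 0% = infected and 100% = uninfected wells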
* = called active by the depositor; . = not tested or not shown. An excerpt. The share of hits here may be higher or lower than overall.

SMILES	YopH PTP inh	Mtb growth	RecA splice inh	Arbovirus anti	Mtb betalactam	others
CC1CN(C(=O)c2cc3cc(Cl)cc(Cl)c3oc2=O)CC(C)O1 (configuration not stated)	-6	-1%	0.0	-1	-4
C=CCn1c(=O)c2ccccc2n2c(SC(C)C(N)=O)nnc12 (configuration not stated)	.	.	-1.0	.	-2
CN(Cc1cnccn1)C(=O)CC1C(=O)NCCN1Cc1cccc(Oc2ccccc2)c1 (configuration not stated)	.	-9%	3.0	-2	-12
CCCCNC(=S)NC(=O)c1ccccc1Br	-16	7%	-9.7	-7	1
O=C(CN1CCN(c2ccccc2O)CC1)NCCCc1ccccc1	.	-4%	-1.3	18	-6
O=C(Nc1ccc(-c2nnn(CC(=O)N3CCN(C(=O)c4ccco4)CC3)n2)cc1)c1ccccc1F	.	-2%	-1.5	-10	-6
CCc1cccc(NC(=O)C2CCN(S(=O)(=O)c3cccs3)CC2)c1	-32	10%	2.7	-3	3
COc1cc2c(cc1OC)C(C)N(S(=O)(=O)c1ccc(C)cc1)CC2 (configuration not stated)	.	.	2.5	.	-2
COc1cc2c(cc1OC)C(c1ccc([N+](=O)[O-])cc1)NC(=O)C2 (configuration not stated)	.	.	2.5	.	-19
Cc1ccccc1C(=O)Nc1ccc(N2CCCCCC2)cc1	.	-3%	1.6	-20	-3
CC1CC(C)CN(CCCNC(=O)Cn2cccc2C(=O)c2ccccc2)C1 (configuration not stated)	.	.	-2.8	.	7
COc1ccc(S(=O)(=O)N2CCCCCC2)cc1C(=O)N(C)Cc1ccc(OC)c(OC)c1OC	.	.	-0.3	.	-14
O=C(/C=C/c1ccco1)Nc1cccc(C(=O)Nc2ccccc2C(=O)O)c1	.	-11%	3.0	.	0
O=C(Nc1ccc2oc(-c3ccncc3)nc2c1)c1ccc(F)cc1	.	-4%	-0.1	-2	-3
COC(=O)c1ccc(CSc2nc3c(cnn3-c3ccc(Cl)cc3)c(=O)[nH]2)o1	-6	-1%	.	-1	.
Cc1ccc(S(=O)(=O)c2nc(-c3ccccc3)oc2NCCCN2CCOCC2)cc1	.	4%	-1.5	2	.
O=C1C(=O)N(CCN2CCCCC2)c2ccccc21	-23	4%	-2.5	-7	-15
COC(=O)NCC(C)OC(=O)Nc1cccc(Cl)c1 (configuration not stated)	-40	-3%	2.3	3	-6
O=S(=O)(c1ccccc1)N1N=C(c2ccccc2)CC1c1ccco1 (configuration not stated)	.	.	12	.	-3
COc1ccc(C2C=C(c3ccc(F)cc3)NC(=S)N2)cc1OC (configuration not stated)	.	10%	1.5	2	32
CCN(CCCNC(=O)C1CCC(=O)N1Cc1ccccc1Cl)c1cccc(C)c1 (configuration not stated)	-15	4%	0.1	3	-1
COc1ccc(C(=O)COC(=O)c2ccc3ccccc3n2)cc1	12	12%	2.0	0	51
Cc1c(Nc2nc3ccccc3nc2NS(=O)(=O)c2cccc(Cl)c2)c(=O)n(-c2ccccc2)n1C	-39	-7%	-2.9	1	-3
CCOC(=O)N1CCN(Cc2cn[nH]c2-c2cc3ccccc3o2)CC1	.	-4%	1.8	-1	-2
O=C(c1ccco1)c1cn[nH]c1-c1ccc(Cl)cc1O	-63	-8%	-4.7	1	19	Arbovirus anti repeat=9
COc1ccc(-c2cc(-c3cc(OC)ccc3O)[nH]n2)cc1	-7	-3%	5.1	-37	92
COc1ccc(N2CCN(C(=O)NCc3ccc(OC)c(OC)c3)CC2)cc1	.	.	-1.4	.	-6
COc1cc(C(C(=O)NC(C)(C)C)N(Cc2ccc3c(c2)OCO3)C(=O)c2cnccn2)cc(OC)c1OC (configuration not stated)	-9	-6%	3.9	-4	1
CCSc1nc(O)cc(=O)n1CC	.	9%	1.6	6	4
CCCCOc1ccc(/C(O)=C2/C(=O)C(=O)N(CCCOC)C2c2ccncc2)cc1 (configuration not stated)	-43	-27%	-2.6	5	97
Fc1ccc(C(Nc2ccccn2)c2c[nH]c3ccccc23)cc1 (configuration not stated)	.	0%	3.0	-30	0
Cc1nnc2sc(SCc3ccccc3Cl)nn2c1=O	.	0%	13	21	-10
CCOC(=O)c1ccc(N2C(=O)c3n[nH]c(C)c3C2c2ccc(OC)cc2)cc1 (configuration not stated)	-42	5%	11	12	8
Cc1cc2c(cc1C)C(c1ccccc1F)CC(=O)N2 (configuration not stated)	.	.	-4.4	.	-3
CCOc1ccc(S(=O)(=O)N2CCOCC2)cc1NC(=O)CN1C(=O)NC2(CCCC2)C1=O	.	.	2.6	.	-3
O=C(O)Cc1sc(-c2ccc(C(=O)O)cc2)nc1-c1ccccc1	.	-9%	.	8	-6
CCc1ccc(NC(=O)c2ccc(-n3cncn3)c([N+](=O)[O-])c2)cc1	.	.	-3.2	.	-2
CN1C(=O)c2ccccc2N(C)C1c1cccs1 (configuration not stated)	-8	2%	-2.5	8	10
COc1nc(SCC(=O)Nc2ccccc2Cl)nc(N(C)C)n1	.	6%	0.9	.	1
N[C@@H](Cc1ccccc1)c1nnc(SC/C=C/c2ccccc2)o1	.	3%	1.2	.	14
O=C(c1cc(COc2ccc3ncccc3c2)on1)N1CCC[C@H]1CO	.	.	2.5	.	3
FC(F)(F)c1ccc(CN2C[C@@H]3C(c4ccccc4)C4(c5cccnc5)CC3(C4)[C@H]2c2ccccc2)cc1 (some centres not stated)	.	20%	15	.	2
Cc1ccc(NC(=O)C2CCCN(C(=O)c3ccc(Cl)cc3)C2)cc1C (configuration not stated)	.	2%	1.2	-4	2
NS(=O)(=O)c1cccc(NC(=O)COC(=O)CCCc2c[nH]c3ccccc23)c1	.	-6%	0.2	7	8
CCCCCCC(=O)N1CCCC(c2nc(-c3cccc(OC)c3)no2)C1 (configuration not stated)	.	-7%	5.6	.	7

Of the compounds above, these have a halogen:
SMILES	YopH PTP inh	Mtb growth	RecA splice inh	Arbovirus anti	Mtb betalactam	others
CC1CN(C(=O)c2cc3cc(Cl)cc(Cl)c3oc2=O)CC(C)O1 (configuration not stated)	-6	-1%	0.0	-1	-4
CCCCNC(=S)NC(=O)c1ccccc1Br	-16	7%	-9.7	-7	1
O=C(Nc1ccc(-c2nnn(CC(=O)N3CCN(C(=O)c4ccco4)CC3)n2)cc1)c1ccccc1F	.	-2%	-1.5	-10	-6
O=C(Nc1ccc2oc(-c3ccncc3)nc2c1)c1ccc(F)cc1	.	-4%	-0.1	-2	-3
COC(=O)c1ccc(CSc2nc3c(cnn3-c3ccc(Cl)cc3)c(=O)[nH]2)o1	-6	-1%	.	-1	.
COC(=O)NCC(C)OC(=O)Nc1cccc(Cl)c1 (configuration not stated)	-40	-3%	2.3	3	-6
COc1ccc(C2C=C(c3ccc(F)cc3)NC(=S)N2)cc1OC (configuration not stated)	.	10%	1.5	2	32
CCN(CCCNC(=O)C1CCC(=O)N1Cc1ccccc1Cl)c1cccc(C)c1 (configuration not stated)	-15	4%	0.1	3	-1
Cc1c(Nc2nc3ccccc3nc2NS(=O)(=O)c2cccc(Cl)c2)c(=O)n(-c2ccccc2)n1C	-39	-7%	-2.9	1	-3
O=C(c1ccco1)c1cn[nH]c1-c1ccc(Cl)cc1O	-63	-8%	-4.7	1	19	Arbovirus anti repeat=9
Fc1ccc(C(Nc2ccccn2)c2c[nH]c3ccccc23)cc1 (configuration not stated)	.	0%	3.0	-30	0
Cc1nnc2sc(SCc3ccccc3Cl)nn2c1=O	.	0%	13	21	-10
Cc1cc2c(cc1C)C(c1ccccc1F)CC(=O)N2 (configuration not stated)	.	.	-4.4	.	-3
COc1nc(SCC(=O)Nc2ccccc2Cl)nc(N(C)C)n1	.	6%	0.9	.	1
FC(F)(F)c1ccc(CN2C[C@@H]3C(c4ccccc4)C4(c5cccnc5)CC3(C4)[C@H]2c2ccccc2)cc1 (some centres not stated)	.	20%	15	.	2
Cc1ccc(NC(=O)C2CCCN(C(=O)c3ccc(Cl)cc3)C2)cc1C (configuration not stated)	.	2%	1.2	-4	2

Later entries.
SMILES	YopH PTP inh	Mtb growth	RecA splice inh	Arbovirus anti	Mtb betalactam	others
CCOC(=O)N1CCN(C(=O)c2ccc(N(Cc3ccccc3Cl)S(C)(=O)=O)cc2)CC1	.	.	-1.9	.	-2
O=c1cc(-c2ccc(O)c(-c3c(O)cc(O)c4c(=O)cc(-c5ccc(O)cc5)oc34)c2)oc2cc(O)cc(O)c12	-14	12%	5.8	-7	-8
CCOc1ccccc1CNC(=O)CCCc1cn(C)c2ccccc12	-8	.	6.6	11	-7
Cc1cc(C(=O)OCC(=O)N2C(C)CCCC2C)c(C)o1 (configuration not stated)	-30	6%	-0.5	5	-2
C[C@H]1C(=O)N(C)CCN1C(=O)c1ccccc1OC1CCN(S(C)(=O)=O)CC1	.	-1%	0.6	-6	12
CCCCCCCC(=O)OCC(=O)[C@@]1(O)CC[C@H]2[C@@H]3CCC4=CC(=O)CC[C@]4(C)[C@H]3[C@@H](O)C[C@@]21C	-29	22%	3.5	18	15
CCN(c1ccc(OC)cc1)S(=O)(=O)c1ccc2c(c1)NC(=O)CS2	.	.	2.8	.	-2
COCCN(Cc1ccccc1)C(=O)c1c(C)nn(-c2ccccc2)c1C	.	-4%	-0.4	0	-2
Cc1ccc(C(=O)NC2CCCc3c2cnn3-c2ccc(F)cc2F)cn1 (configuration not stated)	.	.	1.9	.	9
COc1ccc(Cc2c(O)nc[nH]c2=O)cc1	-25	-2%	-1.2	9	-7
NC(=O)CSc1nnc(-c2ccncc2)o1	.	-1%	-2.0	4	-3
COC(=O)c1cc(=O)c2c([N+](=O)[O-])ccc(OC)c2o1	-26	-3%	-1.0	0	-6
CC1C(=O)N(Cc2ccc([N+](=O)[O-])cc2)c2ccccc2N1C(=O)c1c(F)cccc1F (configuration not stated)	.	.	7.7	.	-3
Cc1cccc(C(=O)NC(=S)N(C)C2CCCCC2)c1	.	.	-0.3	.	85
Cc1ccccc1N1C(=O)C2C3C=CC(C2C1=O)N(C)C3=O (configuration not stated)	-30	-7%	0.7	1	-9
Cc1ccc(Cn2cnc3sc4c(c3c2=O)CCC4)c(C)c1	11	8%	-0.5	1	37
COc1ccccc1CNC(=O)/C(C#N)=C/c1ccc(OC)c(OC)c1OC	.	.	2.4	.	0
O=C(CC1Nc2ccccc2NC1=O)NCCCN1CCCCCC1 (configuration not stated)	6	.	-3.0	2	-13
O=C(COc1ccc(S(=O)(=O)NC2CCCCC2)cc1)NCc1cccnc1	-15	2%	-1.6	2	10
Cn1nccc1NC(=O)Nc1cccc(Cl)c1	.	-2%	-0.4	.	-10
COc1ccc(OC)c(/C=N/NC(=O)C(=O)N/N=C/c2cc(OC)ccc2OC)c1	.	.	-4.4	.	1
COC(=O)C1=C(C)N(Cc2ccco2)C(=O)N[C@H]1c1ccc(Br)cc1	-35	.	0.9	15	-5
CC(C)N(Cc1ccccc1)C(=O)CN1C(=O)NC2(CCCc3ccccc32)C1=O (configuration not stated)	.	.	-4.6	.	-15
Cc1ccc(S(=O)(=O)Nc2nc3ccccc3nc2Nc2cccc(S(=O)(=O)N3CCCC3)c2)cc1	.	2%	-3.7	-16	-5
COc1ccc(NC(=O)CN(c2cccc(C(F)(F)F)c2)S(C)(=O)=O)cc1OC	-16	-9%	1.5	4	-11
CN(Cc1c(F)cccc1Cl)C(=O)C1CC(=O)N(CCc2ccccc2)C1 (configuration not stated)	.	-1%	1.0	9	-7
O=C(CSc1nnc(CNc2ccc(F)cc2)o1)N1CCN(C(=O)c2ccco2)CC1	-25	2%	3.5	1	2
COC(=O)c1sccc1NC(=O)c1ccc(Cl)s1	-30	-2%	-3.6	5	-4
CC(Oc1ccc2c(-c3ccccc3)cc(=O)oc2c1)C(=O)O (configuration not stated)	-25	-19%	0.3	2	-13
CCN1CCN(c2nc3c(c(=O)[nH]2)CCC3)CC1	.	.	1.3	.	-19
Cc1cccc(C(=O)NNC(=O)C2CCCO2)c1 (configuration not stated)	4	-2%	-2.4	0	-5
COCCn1c(N)c(Sc2ccc([N+](=O)[O-])cc2)c(=O)[nH]c1=O	.	5%	0.4	-1	-4
CCn1c(=S)[nH]c2c(c1=O)C(C)(C)Cc1ccccc1-2	.	26%	-2.8	9	.
Cc1cccc(OCC(=O)NC(Cc2c[nH]c3ccccc23)C(=O)O)c1C (configuration not stated)	.	1%	2.8	4	-9
O=C(CSc1n[nH]c(=O)n1C1CC1)Nc1cc(Cl)ccc1Oc1ccccc1	-41	4%	1.6	7	4

High-throughput results as filed in PubChem.
